rRNA inh HTS: reduced GFP signal of wild-type E. coli, primary screen, bacterial rRNA inhibitor project, GFP/RFP fluorescence, OD600, single point | 350,000 tested, 1.6% active | E. coli WT GFP vs humanized-ribosome RFP mutants, 24 h; stronger effect = lower value; DMSO median 0, no signal -100 | GFP signal change (wild-type ribosome), % (concentration not given with the values);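 active = significant combined selectivity score with lowered wild-type GFP, culture density cut under 30%, mutant RFP and density less affected; inactive = any of these conditions unmet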; note: one replicate is shown; some compounds called inactive have numbers as strong as hits
T cruzi inh: inhibitors of intracellular T. cruzi growth, primary screen, luminescence, NIH3T3 host cells; T. cruzi beta-gal in NIH3T3, 90 h; 300,000 tested, 1.4% active; AID 1885, 2009; inhibition, % (test concentration not listed);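 active = mean inhibition across valid replicates above about 55%, limit read from the data; inconclusive = mean below that limit but half or more replicates reach it; inactive = mean below it, under half of replicates reach it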;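 note: signal also drops with host cell toxicity which is not excluded here; 0% = plate median of DMSO wells and 100% = zero luminescence signal; higher percent means less beta-gal luminescence so fewer parasites; stock transfer was 50 nL into about 50 µL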
Beta cell apopt: inhibitors of cytokine-induced beta cell apoptosis, primary screen, luminescence; INS-1E cytokine-induced death, ATP luminescence, 48 h; percent of positive-control rescue, neutral wells zero; 300,000 tested, 0.8% active; protection from apoptosis, % (test concentration not listed);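 active = all replicates at 75% or more, or half of them and the mean; inconclusive = half reach 75% but not the mean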;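 note: 0% = cytokine-treated negative control wells and 100% = positive control rescue; higher means more ATP so stronger rescue from cytokine killing; wells of about 40 µL received 100 nL stock; the first replicate is given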
Vif TR-FRET: inhibitors of Vif binding to APOBEC3G peptide, primary screen, biochemical, TR-FRET, GST-Vif 1-94, biotin-A3G peptide, dose response retest (AID 1117319); Virion infectivity factor (Human immunodeficiency virus type 1 group M subtype B (isolate …; TR-FRET GST-Vif / biotin-A3G peptide binding; higher % means a stronger effect; test concentration not given here; strong numbers were not always called active; inhibition, %; hits with a dose series show IC50 in µM; 260,000 tested, 0.57% active;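 active = above the screen mean plus three standard deviations and confirmed in dose response; inconclusive = results disagree or hit not tested in dose response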;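 note: Vif residues 1-94 fused to GST binding biotinylated APOBEC3G peptide 110-148; 0% = full assay without inhibitor and 100% = GST in place of GST-Vif; retest series ran down from 100 µM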
A1 inh: caspase 3/7 activation in MEF A1-2A-BIM cells, primary screen, A1 inhibitor project, cell-based, luminescence, HTS; Caspase-Glo 3/7 luminescence, 3 h; percent of clofoctol response, vehicle zero; 330,000 tested, 0.066% active; caspase activation, % (test concentration not listed);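 active = over half of replicate activation scores above 10%, or exactly half above 10 with the replicate mean above 10; inconclusive = replicate mean below 10 yet half the replicates above 10; inactive = over half of replicates below 10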;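 note: wells of about 30 µL received 50 nL stock; many hits fall short of the cut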
Calb FLC: C. albicans growth inhibition with fluconazole, primary screen, CaCi-2 strain, Alamar Blue fluorescence. C. albicans CaCi-2 (fluconazole-resistant clinical isolate) + fluconazole, 48 h. growth inhibition, % (test concentration not listed). 300,000 tested, 0.57% active;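 active = most replicates above 75%; inconclusive = exactly half above 75%; inactive = most below 75%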;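 note: all wells also contain fluconazole at 8 µg/ml as a sub-toxic cotreatment; 0% = median of DMSO wells and 100% = median of geldanamycin control wells; wells of about 8 µL received 7.5 nL stock; the first replicate is given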
RanGTP-Imp inh: inhibitors of RanGTP-importin-beta interaction, primary screen, biochemical, FRET, CFP-Ran, YFP-importin-beta, homogeneous | AID 2216, 2009 | cell-free CFP-Ran/YFP-importin-beta FRET ratio | inhibition, % (no concentration beside the values) | 300,000 tested, 1.1% active;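 active = most replicates above 15%; inconclusive = exactly half above 15%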;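 note: 0% = DMSO wells and 100% = Ran loaded with GDP instead of GTP; wells of about 40 µL received 100 nL stock; the first replicate is given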
MLL AF4-AF9 inh: inhibitors of AF4 peptide binding to AF9, primary screen, biochemical, AlphaScreen, biotin-AF4 peptide, FLAG-AF9, single point; Protein AF-9 (Homo sapiens), P42568; inhibition, % at 10 µM; 350,000 tested, 0.47% active; AID 651704, 2012;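 active = every replicate reaching a set inhibition limit, whatever the replicate mean, cut at about 25% in these data; inconclusive = mean inhibition reaches that limit but some replicates miss it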;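 note: 0% = plate neutral control median and 100% = total signal loss; the record names both 10 and 1 µM as test concentration; the first replicate is given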
Target sequence (P42568 whole entry, looked up): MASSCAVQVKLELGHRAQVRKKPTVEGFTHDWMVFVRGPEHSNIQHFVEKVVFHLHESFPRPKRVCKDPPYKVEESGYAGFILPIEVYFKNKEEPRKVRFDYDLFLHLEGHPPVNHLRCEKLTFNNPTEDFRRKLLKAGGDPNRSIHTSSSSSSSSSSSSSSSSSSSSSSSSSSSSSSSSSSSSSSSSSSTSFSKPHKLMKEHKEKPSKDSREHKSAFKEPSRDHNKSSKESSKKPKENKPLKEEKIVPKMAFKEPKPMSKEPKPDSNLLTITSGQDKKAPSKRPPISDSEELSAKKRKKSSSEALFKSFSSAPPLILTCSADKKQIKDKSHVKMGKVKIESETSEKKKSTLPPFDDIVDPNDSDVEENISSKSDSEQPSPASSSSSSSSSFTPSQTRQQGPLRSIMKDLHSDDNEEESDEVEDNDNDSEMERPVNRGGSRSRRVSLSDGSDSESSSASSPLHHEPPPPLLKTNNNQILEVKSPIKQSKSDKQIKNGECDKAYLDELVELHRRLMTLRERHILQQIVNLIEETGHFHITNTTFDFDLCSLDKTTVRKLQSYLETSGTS
rRNA inh HTS OD600: also measured in rRNA inh HTS; calls as there; OD600 change, %; measured here: OD600 growth;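 optical density of the mix in the first replicate; 0 = DMSO median and -100 = no signal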
rRNA inh HTS RFP: also measured in rRNA inh HTS; calls as there; RFP signal change, %; measured here: RFP humanized mutant strains;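 first replicate; 0 = DMSO median and -100 = no signal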
Numbers without * were called inactive; ? = inconclusive; . = no result given. A portion of the library, so the mix of outcomes need not match the whole.

SMILES	rRNA inh HTS	rRNA inh HTS OD600	rRNA inh HTS RFP	T cruzi inh	Beta cell apopt	Vif TR-FRET	A1 inh	Calb FLC	RanGTP-Imp inh	MLL AF4-AF9 inh
O=[N+]([O-])c1ccc(-c2n(-c3ccccn3)c3ccccc3[n+]2-c2ccccn2)cc1	4.4	-1.1	-8.5	6.8	0.9	22.5%	1.1	4.5	-2.9	4.5
N#CC(C(=O)NCc1ccccc1)c1nc2ccccc2nc1N1CCCC1 (centres undefined)	.	.	.	0.1	3.5	?	0.4	-1.4	35.5*	.
COc1ccc(S(=O)(=O)N2CCOC23CCN(S(=O)(=O)c2cc(F)ccc2F)CC3)cc1	-17.3	-19.9	-5.7	9.5	-2.7	3.6%	-0.2	-3.4	0.8	0.0
CS(=O)(=O)N(Cc1ccc(Cl)cc1)c1ccc(C(=O)NCCSCc2ccco2)cc1	.	.	.	6.9	-1.9	4.2%	-0.2	0.5	-1.7	.
COc1ccc(C(=O)N2CC3(C)C4CCC3(C)C2(C#N)C4)cc1OC (centres undefined)	-1.4	-6.2	-1.4	-5.4	0.5	-3.8%	0.2	1.5	1.3	-1.0
CCc1nnc(NC(=O)CSc2nccn2-c2cc(C)cc(C)c2)s1	6.5	-3.2	8.2	-3.3	-1.3	1.7%	0.2	-4.7	-0.1	11.5
COC(=O)c1ccc(C2C(C#N)=C(N)Oc3cc(O)ccc32)cc1 (centres undefined)	-29.3	-44.2	-2.7	-19.7	.	-4.2%	-0.6	23.1	-23.3	4.0
Cc1ccc(NC(=S)Nc2c(C)n(C)n(-c3ccccc3)c2=O)cc1Cl	1.9	-3.8	-6.5	-6.9	-0.5	-6.0%	0.3	-9.2	-3.4	-11.7
Cc1ccn2c(=O)nc(SCC(=O)Nc3cc(C)on3)nc2c1	3.7	4.1	-0.3	-12.9	-5.1	-5.1%	0.3	25.5	9.2	0.2
O=C(O)C1CCCCC1C(=O)Nc1cccc(C(=O)N2CCCCC2)c1 (centres undefined)	13.3	7.0	4.2	-16.3	-7.2	5.8%	-0.7	3.2	4.1	0.8
Cc1ccc(NC(=O)CN2CCCN(S(=O)(=O)c3ccc(Br)s3)CC2)cc1	1.1	-1.0	4.5	37.5	-7.3	-0.7%	0.0	?	3.0	8.0
COc1ccc(C(=O)NC(=S)Nc2ccc3[nH]c(=O)[nH]c3c2)cc1	1.2	4.5	-1.8	3.7	3.0	-2.2%	-0.1	1.3	0.6	-0.8
Cc1ccc(S(=O)(=O)Nc2ccc3oc(=O)sc3c2)c(C)c1	.	.	.	-3.0	2.7	20.6%	-0.8	14.4	3.2	.
Cc1c(NC(=O)c2ccc(S(=O)(=O)N3CC(C)OC(C)C3)cc2)c(=O)n(-c2ccccc2)n1C (centres undefined)	.	.	.	3.3	1.2	?	-0.5	-4.8	2.5	.
O=[N+]([O-])c1cccnc1N1CCN(c2ccc(F)cc2)CC1	-32.5*	-11.2*	-5.9*	-4.9	2.0	-1.4%	0.6	-9.3	-1.8	?
CCOC(=O)c1ccc(NC(=S)NCCC2=CCCCC2)cc1	.	.	.	4.7	0.6	?	-0.1	-4.2	1.1	.
Cc1cc(C(=O)N/N=C/c2cc(Br)cc(Br)c2OC(=O)c2cccc(F)c2)n[nH]1	-31.0*	-8.9*	-2.9*	65.5*	96.9*	2.4%	-0.6	-7.8	-14.0	-0.3
Cc1cc(CSc2ccccc2)ccc1NC(=O)c1ccc(CN2CCOCC2)cc1	.	.	.	18.3	7.0	.	-0.6	-67.9	6.6	.
O=C(Nc1ccccc1)c1cc2ccccc2o1	.	.	.	-3.6	0.1	-0.7%	0.5	-5.1	?	.
COCCNC(=S)c1ccc(Br)cc1	1.0	-0.3	4.1	-4.7	-6.7	-4.3%	1.0	-4.7	1.5	1.4
CCn1c(COc2ccc3c(c2)OCO3)nnc1SCC(=O)c1ccccc1	.	.	.	17.5	4.3	9.0%	0.4	-3.0	12.0	.
S=c1[nH]nc(C2CCCCC2)n1/N=C/C=C/c1ccccc1	.	.	.	19.8	-3.8	12.1%	-0.3	?	-1.1	.
Cc1ccc(S(=O)(=O)N(Cc2ccccc2)c2ccccn2)cc1[N+](=O)[O-]	-22.6	-18.8	-6.7	17.4	-3.0	.	0.7	15.2	1.2	7.7
COC(=O)N/N=C(\C)c1ccc(-n2ccnc2)cc1	23.0	12.3	1.2	-17.2	1.1	4.3%	0.0	-42.3	0.8	-1.1
COc1ccc(CC(=O)NCc2nnc(SCCOc3ccccc3)n2C)cc1	.	.	.	-4.1	.	4.5%	0.9	-3.7	-2.1	.
SMILES	rRNA inh HTS	rRNA inh HTS OD600	rRNA inh HTS RFP	T cruzi inh	Beta cell apopt	Vif TR-FRET	A1 inh	Calb FLC	RanGTP-Imp inh	MLL AF4-AF9 inh
CC[C@@H](CCC=C(C)C)C(=O)N(Cc1ccccc1)c1ccccc1	-1.9	3.7	-15.2	.	12.0	.	0.0	.	.	1.6
Cc1cccc(N(C(=O)CCC(=O)Nc2cc(C)on2)C(C(=O)NC2CCCC2)c2ccccc2)c1 (centres undefined)	5.6	4.4	-1.1	10.3	3.8	.	-0.5	15.2	-3.5	-0.1
C=CCNC(=O)c1cccn1-c1ccsc1C(=O)OC	.	.	.	-8.4	-1.9	5.8%	-0.2	17.5	-2.0	.
COc1cc(OC)c(C(=O)Nc2ccc(C(=O)c3ccccc3)cc2)cc1OC	-18.0	-19.6	-2.1	-0.4	0.7	.	0.2	3.5	-2.8	1.5
Cc1ccc(C(=O)C(C)OC(=O)c2cc(=O)[nH]c3ccccc23)cc1 (centres undefined)	5.2	2.0	1.8	-11.5	-5.9	1.9%	-0.6	-1.1	.	0.0
COc1ccc(NC(=O)c2cc(-c3cccs3)on2)cc1OC	.	.	.	-9.1	7.0	-0.3%	-1.2	?	6.2	.
O=C(O)c1cc(O)c2c(c1)[C@H]([C@H]1c3cc(C(=O)O)cc(O)c3C(=O)c3c(O[C@@H]4O[C@H](CO)[C@@H](O)[C@H](O)[C@H]4O)cccc31)c1cccc(OC3O[C@H](CO)[C@@H](O)[C@H](O)[C@H]3O)c1C2=O (some centres undefined)	-22.9	25.9	-12.3	2.0	5.7	.	0.0	-4.6	-43.0	4.3
Cc1ccc(C(=O)Nc2c[nH]c(=O)[nH]c2=O)cc1	10.9	6.5	-0.1	7.7	-8.3	-2.4%	-0.9	6.1	2.7	2.6
O=C1CC2c3ccccc3C1C1C(=O)N(Cc3ccccc3)C(=O)C21 (centres undefined)	4.5	6.3	-1.7	-7.5	-6.8	3.9%	0.3	1.7	1.3	0.4
Cc1cccc(OCC(=O)Oc2ccc(Cl)cc2)c1	16.5	3.0	-2.0	-9.9	-0.6	.	-0.1	-5.8	1.9	.
Cc1ncc(CO)c(CNc2ccc(-c3nc4ccccc4[nH]3)cc2)c1O	-4.2	0.9	-8.0	-13.7	4.0	-1.3%	-7.3	7.6	0.2	5.5
c1ccc2c(-n3cnnn3)cccc2c1	.	.	.	-10.1	.	-3.7%	1.5	5.7	-3.9	.
COCCCN1C(=O)c2ccccc2C1C(=O)NC1CCCCCC1 (centres undefined)	1.7	-15.4	0.9	-10.2	-0.9	-0.1%	0.0	-11.5	2.3	.
Cn1c(SCC(=O)Nc2ccccc2Oc2ccccc2)nnc1C1CC1	7.1	8.4	3.7	.	4.8	.	1.5	.	.	0.7
CSc1nnc(-c2cc(C)on2)n1-c1ccccc1	.	.	.	9.3	-6.1	2.1%	0.0	-0.7	0.9	.
CCCOC(=O)c1ccc(NC(=O)C(=O)NCC2CCCO2)cc1 (centres undefined)	16.8	2.4	0.9	-12.0	-5.0	.	-0.4	-0.2	4.7	-82.7
C=CCOc1ccc(/C(O)=C2\C(=O)C(=O)N(CCCOC)C2c2ccncc2)cc1 (centres undefined)	.	.	.	-12.3	-3.8	13.7%	0.1	-6.0	0.6	.
CC1CC(C)CN(C(=O)CSc2nc(Cc3cccs3)nc3ccccc23)C1 (centres undefined)	.	.	.	16.1	-19.6	?	0.7	-1.9	-0.8	.
CCn1c(SCC(=O)N2CCCCC2)nc2c(c1=O)SCC2	6.3	-0.2	5.1	-6.2	-0.3	.	0.6	-4.9	2.4	-0.5
O=C(COC(=O)COc1cccc(F)c1)NCCC1=CCCCC1	6.1	2.9	-10.5	-9.4	-1.4	5.5%	0.5	4.5	2.3	-2.0
O=C(c1ccc(F)cc1)N1CCC(n2nnc3ccccc32)CC1	-0.9	0.7	0.2	4.6	-1.0	3.7%	0.5	-1.3	5.5	-0.5
Cc1nnc(SCC(=O)N2CCc3ccccc32)n1-c1ccccc1	.	.	.	0.8	2.4	-3.7%	-0.2	7.4	-1.5	.
C/C(=N\NC(=O)c1ccc(CSc2nc(C)cc(C)n2)cc1)C1CCCCC1	.	.	.	-4.7	-5.7	2.1%	-0.4	-8.8	-1.3	.
O=C(NCc1ccccc1)C1CC(=O)N(C2CCCCCC2)C1 (centres undefined)	0.3	5.0	-0.9	-8.9	-1.9	4.8%	0.4	5.2	-0.6	-5.9
COC(=O)Cn1cnc2c(C#N)c3n(c2c1=O)CCCC3	.	.	.	-10.7	-4.2	3.7%	-0.4	3.6	-0.5	.
SMILES	rRNA inh HTS	rRNA inh HTS OD600	rRNA inh HTS RFP	T cruzi inh	Beta cell apopt	Vif TR-FRET	A1 inh	Calb FLC	RanGTP-Imp inh	MLL AF4-AF9 inh
CC(C)(C)C(=O)N=C1SC2CS(=O)(=O)CC2N1c1ccc2c(c1)OCO2 (centres undefined)	.	.	.	-0.5	-5.2	-2.2%	-0.2	-12.1	2.0	.
COc1ccc(/C=N/NC(=O)c2cc(C)oc2C)cc1OCc1ccccc1	-8.0	-16.6	2.1	12.2	0.1	3.0%	0.2	-18.5	2.2	3.9
COc1ccc(NC(=O)C(=S)N2CCCC2)cc1	13.6	14.1	3.1	-12.8	-9.2	-0.7%	-0.8	-1.2	-2.8	-4.0
COc1ccc2[nH]c(=O)c(NC(N)=S)nc2c1	8.8	-0.5	-0.5	-18.7	-0.5	-0.7%	-0.7	2.7	8.8	-9.2
COn1c(C)c(C(C)=O)c2c3no[n+]([O-])c3ccc21	.	.	.	-2.5	2.4	1.7%	-0.1	6.6	-2.4	.
O=C(Nc1ccc(N2CCOCC2)cc1)c1cccc2ccccc12	2.6	7.3	-1.2	-11.4	0.5	.	-1.1	-18.8	0.9	-7.9

Source: PubChem BioAssay
